High-throughput results (PubChem BioAssay)
Tau filament bind: binds recombinant human tau filaments. P10636. recombinant tau filaments, thioflavin S fluorescence, 15 h; filaments grown with octadecylsulfate alongside compound. Potency, µM (highest dose often 57.1 µM), for inactives: at the highest dose activity change, negative = inhibition. 71,000 tested, 2% active;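 note: potency is the fitted concentration of half-maximal effect; % is set by controls: 0 for no effect and ±100 for the full control effect; actives lower thioflavin S fluorescence by blocking filaments or displacing dye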
Target sequence (P10636 whole entry, looked up): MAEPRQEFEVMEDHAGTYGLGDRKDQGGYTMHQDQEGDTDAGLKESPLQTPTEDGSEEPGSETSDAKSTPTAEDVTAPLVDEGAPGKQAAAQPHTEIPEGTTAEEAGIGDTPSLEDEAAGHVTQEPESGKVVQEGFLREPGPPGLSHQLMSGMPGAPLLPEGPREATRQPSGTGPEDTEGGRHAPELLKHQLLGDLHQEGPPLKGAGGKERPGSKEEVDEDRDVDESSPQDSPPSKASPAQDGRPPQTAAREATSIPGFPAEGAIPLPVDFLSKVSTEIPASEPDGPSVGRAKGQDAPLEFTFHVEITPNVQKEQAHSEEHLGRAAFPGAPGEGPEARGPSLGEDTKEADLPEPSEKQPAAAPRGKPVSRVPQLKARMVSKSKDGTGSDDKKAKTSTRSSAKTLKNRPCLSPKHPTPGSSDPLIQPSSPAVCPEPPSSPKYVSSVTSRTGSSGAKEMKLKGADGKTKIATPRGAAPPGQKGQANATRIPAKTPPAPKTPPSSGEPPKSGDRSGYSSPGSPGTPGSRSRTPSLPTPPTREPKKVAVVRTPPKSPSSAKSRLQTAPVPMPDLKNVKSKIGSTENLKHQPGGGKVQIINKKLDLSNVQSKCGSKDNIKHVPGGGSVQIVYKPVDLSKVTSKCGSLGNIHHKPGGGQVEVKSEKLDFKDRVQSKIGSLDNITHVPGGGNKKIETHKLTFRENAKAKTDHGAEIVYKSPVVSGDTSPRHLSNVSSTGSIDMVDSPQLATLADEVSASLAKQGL
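Read-out: ThS fluorescence, 450 nm excitation/510 nm emission; lower signal marks blocked filament formation or displaced dye. Tau at 1 uM with 30 uM ODS, 10 uM ThS, 5 mM DTT, 100 mM NaCl, 10 mM HEPES pH 7.4; 15 h, 37 C.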
Luciferase inh: blocks Photinus pyralis firefly luciferase activity; P08659; purified firefly luciferase, luminescence, 8 min; Potency, µM (highest dose often 57.1 µM), for inactives: at the highest dose activity change, negative = inhibition, actives largely listed as inhibitors; 72,000 tested, 2.2% active; AID 411; note: potency is the fitted concentration of half-maximal effect; % is set by controls: 0 for no effect and ±100 for the full control effect; nearly all actives have a fitted effect of over 40% in size
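Titration-based qHTS; buffer 50 mM imidazole pH 7.2, 50 mM KCl, 7 mM MgCl2, 10 uM ATP, 0.01% Tween 20, 0.05% BSA; luciferase/luciferin detector mix added after compound; 8 min, ambient; luminescence.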
Rhodamine fluor: compound autofluorescence in rhodamine spectral region; Rhodamine-region fluorescence, 547/598 nm, Tris buffer; active compounds read high; max dye-equivalent concentration, M; 59,000 tested, 0.05% active; AID 594; in the data active = max dye-equivalent concentration above about 11 nM; inconclusive = between about 1.1 nM and that limit
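Steps: pin-transfer compounds into pH 8.0 Tris (100 mM), hold 15 min at room temperature, image with a 547/598 nm filter pair, and convert intensities to rhodamine-equivalent concentration using a six-point on-plate rhodamine series.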
Casp1 inh: allosteric or competitive inhibitors of human caspase-1; P29466; Caspase-1 enzyme, Ac-WEHD-AFC fluorogenic rate; Potency, µM (series often up to 57.5 µM), without a hit: at the highest dose activity change, negative = inhibition, hits mostly inhibitors; 75,000 tested, 0.03% active;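 note: potency is the fitted concentration of half-maximal effect; plate controls were vehicle for no effect and no substrate for full effect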
TexasRed autofl: compound fluoresces in the Texas Red spectral region | 59,000 tested, 0.06% active | Compound fluorescence, Texas Red channel, 547/618 nm; active compounds read high | max dye-equivalent concentration, M | AID 587; in the data active = max dye-equivalent concentration above about 10 nM; inconclusive = between about 1.1 nM and that limit
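Dye-equivalent concentrations come from scaling compound signal (ex 547, em 618 nm) to six Texas Red standard concentrations run on every plate, after 15 min room-temperature incubation in pH 8.0 Tris (100 mM).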
Caspase-7 inhib: blocks human caspase-7 allosterically or competitively. P55210. recombinant caspase-7, Ac-DEVD-AFC fluorescence rate. Potency, µM (top dose mostly 57.5 µM), inactives show at the top dose activity change, negative = inhibition, usual class: inhibitors. 75,000 tested, 0.02% active. AID 889; active = well fitted inhibition curve with a large enough effect in the main read-out, with a control signal flat, not every such curve was filed as active; inconclusive = small, poorly fitted or top-dose-only effect, or a change in a side signal; note: potency is the fitted concentration of half-maximal effect; % of control where 0% means no effect
Fluorescein autfl: fluorescein region autofluorescence; Compound autofluorescence, 480/540 nm, fluorescein-equivalent; active compounds read high; max fluorescein-equivalent concentration, M; 59,000 tested, 0.91% active; AID 593; in the data active = max fluorescein-equivalent concentration above about 10 nM; inconclusive = between about 1.1 nM and that limit
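Fluorescein stocks ranging 3 mM down to 300 nM, plus DMSO blanks, were pinned alongside compounds to build a per-plate standard curve. Buffer: 100 mM Tris, pH 8.0. Incubation 15 min, room temperature; filters 480/540 nm.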
* = called active by the depositor; i = inactive; ? = inconclusive; . = no result given; & = joins results of further samples; [ ] = remark or other dose. Unless noted, calls come from the whole dose curve; as a rule, active = well fitted curve in the direction sought with a large enough effect; inconclusive = small, poorly fitted or top-dose-only effect, or another doubt; inactive = no such curve, though single readings can be large; an effect the other way counts as inactive or inconclusive. A portion of the library, so the mix of outcomes need not match the whole.

SMILES	Tau filament bind	Luciferase inh	Rhodamine fluor	Casp1 inh	TexasRed autofl	Caspase-7 inhib	Fluorescein autfl
CCC1=C2CC[C@H]3C(=O)N(CC)C(=O)[C@H]3[C@H]2[C@@]2(C)C(=NCCc3c[nH]c4ccccc34)OC(=O)N2C1=O	.	.	.	0%	.	0%	.
COCCNc1ncnc2ccc(-c3ccccc3C)cc12	-3%	2%[2.29 µM]	i	-2%	i	-3%	i
CCC1=C(OC(=O)N(CC)CC)N2C(=O)OC(=NCC(=O)OC)[C@]2(Cc2ccccc2)[C@H]2C1=CC[C@H]1C(=O)N(c3ccccc3)C(=O)[C@H]12	.	.	.	-5%	.	-6%	.
CC1(C)Cc2ccccc2C(/C(=N/O)C(N)=O)=N1	-8%	3%	i	-1%	i	3%	i
COc1ccc(-c2nnc(SCCC(=O)O)n2C)cc1OC	17%	0%	i	1%	i	-2%	i
COc1cccc(C2CC(c3ccccc3Cl)Nc3nc(N)nn32)c1 (stereo unspecified)	12%	4%	i	-2%	i	-2%	i
C[C@]12CCC3c4ccc(O)cc4CCC3[C@@H]1CCC2=O (stereo partly specified)	-3%[25.6 µM]	5%[25.5 µM]	i	0%[25.7 µM]	i	1%[25.7 µM]	?
C[C@@H]1[C@H](O)[C@@H](C)/C=C/C=C/C=C/C=C/C=C/C=C/C=C/[C@H](O[C@@H]2O[C@H](C)[C@@H](O)[C@H](N)[C@@H]2O)C[C@@H]2O[C@](O)(C[C@@H](O)C[C@@H](O)[C@H](O)CC[C@@H](O)C[C@@H](O)CC(=O)O[C@H]1C)C[C@H](O)[C@H]2C(=O)O	?	.	.	-11%	.	-20%	.
COc1c(N2CCNC(C)C2)c(F)cc2c(=O)c(C(=O)O)cn(C3CC3)c12 (stereo unspecified)	-2%	-2%	i	-4%&-1%	?	-3%&-1%	?
CCc1nc(N)nc(N)c1-c1ccc(Cl)cc1	-1%	0%&1%[25.5 µM]	i	-1%	i	1%	?
CCn1c(COc2ccc(Cl)cc2)nnc1SCC(=O)Nc1ccc2c(c1)OCO2	84%	3%	i	-8%	i	-3%	?
COC(=O)c1c(NC(=O)c2ccc(S(=O)(=O)N3CCOCC3)cc2)sc2c1CCN(C)C2	-5%	0%	i	-4%	?	-3%	i
CCn1c(COc2ccc(C)cc2)nnc1SCC(=O)Nc1ccc(S(N)(=O)=O)cc1	0%	0%	i	0%	i	-2%	?
CN(C)c1ncnc2ccc(-c3ccc4c(c3)OCO4)cc12	-13%	-2%[2.29 µM]	i	-1%	i	1%	?
Cc1nn(-c2ccccc2)c2[nH]c(=O)c(CNCC3CCCO3)cc12 (stereo unspecified)	3%	-31%	i	0%	i	7%	i
Cn1cnc2c(NCc3ccccc3)nc(NCCO)nc21	?	2%&-2%	i	-1%	?	2%	i
CS(=O)(=O)c1ccc(C(O)C(CO)NC(=O)C(Cl)Cl)cc1 (stereo unspecified)	.	.	.	3%	.	-1%	.
O[C@@](CCN1CCCCC1)(c1ccccc1)[C@@H]1C[C@H]2C=C[C@@H]1C2	2%[25.6 µM]	-1%[25.5 µM]	i	-2%[25.7 µM]	i	-1%[25.7 µM]	i
COc1cc2c(cc1OC)-c1cc(N3CCCCCC3)nc(=O)n1CC2	33%	1%	i	-5%	i	-3%	?
NC(=O)CCCCn1ccc(NC(N)=NCC(F)(F)F)n1	?	-1%	.	-3%	.	-1%	.
Cc1cc(=O)n(-c2ccccc2)n1C	7%[25.6 µM]	3%[25.5 µM]	i	1%	i	1%	?
CCOC(=O)CNC(=O)CSc1nnc(COc2ccc(Cl)cc2)n1CC	5%	0%	i	0%	i	-2%	?
CC(=O)c1cc2c(cc1NC(=O)CN1CCN(c3cccc(C(F)(F)F)c3)CC1)OCO2	325%	3%	i	-1%	i	-4%	i
O=C(c1cccc(Cl)c1)N1CCN(Cc2ccncc2)CC1	-11%	1%	i	0%	i	1%	i
C[C@@H]1C(=O)O[C@@H]2C[C@]34[C@H]5C[C@@H](C(C)(C)C)[C@@]36[C@@H](OC(=O)[C@@H]6O)O[C@@]4(C(=O)O5)[C@@]12O	-6%[25.6 µM]	1%[25.5 µM]	i	2%[25.7 µM]	i	1%[25.7 µM]	?

In the list so far, 6 contain sulfur:
SMILES	Tau filament bind	Luciferase inh	Rhodamine fluor	Casp1 inh	TexasRed autofl	Caspase-7 inhib	Fluorescein autfl
COc1ccc(-c2nnc(SCCC(=O)O)n2C)cc1OC	17%	0%	i	1%	i	-2%	i
CCn1c(COc2ccc(Cl)cc2)nnc1SCC(=O)Nc1ccc2c(c1)OCO2	84%	3%	i	-8%	i	-3%	?
COC(=O)c1c(NC(=O)c2ccc(S(=O)(=O)N3CCOCC3)cc2)sc2c1CCN(C)C2	-5%	0%	i	-4%	?	-3%	i
CCn1c(COc2ccc(C)cc2)nnc1SCC(=O)Nc1ccc(S(N)(=O)=O)cc1	0%	0%	i	0%	i	-2%	?
CS(=O)(=O)c1ccc(C(O)C(CO)NC(=O)C(Cl)Cl)cc1 (stereo unspecified)	.	.	.	3%	.	-1%	.
CCOC(=O)CNC(=O)CSc1nnc(COc2ccc(Cl)cc2)n1CC	5%	0%	i	0%	i	-2%	?
